Ecoli growth = blocks Escherichia coli growth. OD600 absorbance (test concentration not listed). 330,000 tested, 0.21% active. OD600, 23 h; active compounds read low;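 active means OD600 absorbance below the run mean of sample wells minus 3.6 SD, in any replicate, cut at about 0.56 in these data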;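 further: stock transfer was 300 nL into about 60 µL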
rRNA inh HTS = inhibitors of bacterial rRNA selective over humanized ribosomes; E. coli WT GFP vs humanized-ribosome RFP mutants, fluorescence, 24 h; active compounds read low; DMSO median 0, no signal -100; GFP signal change (wild-type ribosome), % (concentration not given with the values); 350,000 tested, 1.6% active;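 active means significant combined selectivity score with lowered wild-type GFP, culture density cut under 30%, mutant RFP and density less affected; inactive means any of these conditions unmet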; further: one replicate is shown; some compounds called inactive have numbers as strong as hits
FGF22 binding = binders of recombinant human FGF22 by thermal shift; Q9HCT0; SYPRO orange fluorescence; percent of sucrose octasulfate shift, DMSO zero; calls only at 9.99 µM; 340,000 tested, 1.5% active; AID 651658;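 active means melting point raised past a set limit in the mean and every replicate; inconclusive means no clear call; three in four hits are not shown here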
Target sequence (Q9HCT0 whole entry, looked up): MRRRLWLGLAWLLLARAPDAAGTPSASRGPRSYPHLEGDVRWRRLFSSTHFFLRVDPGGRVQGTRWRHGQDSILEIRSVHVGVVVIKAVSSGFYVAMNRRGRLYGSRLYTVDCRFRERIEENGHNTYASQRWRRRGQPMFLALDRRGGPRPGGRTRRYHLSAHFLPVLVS
ALR H2O2 inh = blocks human ALR sulfhydryl oxidase activity. P55789. purified ALR, DTT oxidation, H2O2 HRP-luminol luminescence. inhibition, % (concentration not given with the values). 290,000 tested, 3.8% active. AID 485317;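 active means mean and each replicate at 75% or more; inconclusive means only one of the two met; inactive means neither met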;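 further: stock transfer was 7.5 nL into about 7.5 µL; 0% = neutral wells and 100% = wells with inactivated enzyme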
Target sequence (P55789 whole entry, looked up): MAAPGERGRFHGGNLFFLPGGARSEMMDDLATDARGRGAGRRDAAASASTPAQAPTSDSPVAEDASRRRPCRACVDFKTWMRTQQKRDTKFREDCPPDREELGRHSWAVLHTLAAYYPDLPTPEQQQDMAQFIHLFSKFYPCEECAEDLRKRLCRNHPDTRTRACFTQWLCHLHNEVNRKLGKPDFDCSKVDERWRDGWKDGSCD
Vif TR-FRET = inhibitors of Vif binding to APOBEC3G peptide, primary screen, biochemical, TR-FRET, GST-Vif 1-94, biotin-A3G peptide, dose response retest (AID 1117319); TR-FRET GST-Vif / biotin-A3G peptide binding; higher % means a stronger effect; test concentration not given here; strong numbers were not always called active; inhibition, %, or IC50 in µM where a hit was titrated; 260,000 tested, 0.57% active;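 active means above the screen mean plus three standard deviations and confirmed in dose response; inconclusive means results disagree or hit not tested in dose response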;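 further: Vif residues 1-94 fused to GST binding biotinylated APOBEC3G peptide 110-148; 0% = full assay without inhibitor and 100% = GST in place of GST-Vif; retest series ran down from 100 µM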
MLL AF4-AF9 inh = MLL-AF4/AF9 protein interaction inhibition; AlphaScreen, biotin-AF4 peptide binding to FLAG-AF9; inhibition, % at 10 µM; 350,000 tested, 0.47% active;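 active means every replicate reaching a set inhibition limit, whatever the replicate mean, cut at about 25% in these data; inconclusive means mean inhibition reaches that limit but some replicates miss it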;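 further: 0% = plate neutral control median and 100% = total signal loss; the record names both 10 and 1 µM as test concentration; the first replicate is given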
HNF4A DNA FP = change in binding of human HNF4 alpha to DNA; 360,000 tested, 0.3% active; AID 1224865; activity change, % at 10 µM; HNF4a-FITC DNA binding, fluorescence polarization, 1 h; P41235; in the data active means activity change above about 30%, passing the limit was not always enough;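 further: controls were the assay level and a saturating level of protein; the project sought stronger binding though the title names inhibitors; some compounds called inactive have numbers as strong as hits; positive values seem to mean higher polarization but the record does not say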
Target sequence (P41235 whole entry, looked up): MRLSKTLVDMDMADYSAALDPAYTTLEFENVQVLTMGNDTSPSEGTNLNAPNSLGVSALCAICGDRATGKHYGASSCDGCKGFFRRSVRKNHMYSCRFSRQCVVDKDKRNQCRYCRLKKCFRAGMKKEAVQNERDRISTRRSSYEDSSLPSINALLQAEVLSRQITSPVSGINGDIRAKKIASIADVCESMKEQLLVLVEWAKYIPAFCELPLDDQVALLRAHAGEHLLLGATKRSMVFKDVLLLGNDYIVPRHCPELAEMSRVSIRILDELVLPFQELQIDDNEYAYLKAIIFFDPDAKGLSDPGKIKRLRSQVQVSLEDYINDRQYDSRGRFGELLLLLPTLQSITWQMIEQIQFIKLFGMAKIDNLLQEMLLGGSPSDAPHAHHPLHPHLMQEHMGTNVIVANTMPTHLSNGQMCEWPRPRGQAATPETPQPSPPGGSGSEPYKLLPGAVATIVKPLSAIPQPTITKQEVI
rRNA inh HTS OD600 = recorded beside rRNA inh HTS, whose call it bears; OD600 change, %; measured here: OD600 growth;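 optical density of the mix in the first replicate; 0 = DMSO median and -100 = no signal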
rRNA inh HTS RFP = second read-out of rRNA inh HTS, no call of its own (marks repeat the call); RFP signal change, %; measured here: RFP humanized mutant strains;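 first replicate; 0 = DMSO median and -100 = no signal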
The depositor's hits bear a star; i = inactive; u = inconclusive; x = no result given.

smiles	Ecoli growth	rRNA inh HTS	rRNA inh HTS OD600	rRNA inh HTS RFP	FGF22 binding	ALR H2O2 inh	Vif TR-FRET	MLL AF4-AF9 inh	HNF4A DNA FP
COCCSc1nc(N)c(NC(=O)c2ccco2)c(=O)[nH]1	0.658	4.4	9.6	12.0	i	-15.5	-1.3%	-7.2	5.1
COc1ccccc1NS(=O)(=O)c1cccc(C(=O)NN)c1	0.728	x	x	x	x	-3.3	5.7%	x	-0.5
CCc1ccccc1NC(=O)c1cnc2n(c1=O)CCS2	0.707	-9.2	-3.2	0.1	i	4.1	-0.9%	1.9	-1.0
CCC(C(=O)O)N1C(=O)/C(=C/c2cccn2C)SC1=S (centres undefined)	0.696	x	x	x	x	5.0	21.2%	x	101.2*
Cc1ccc(C(c2c(C)n(C)n(-c3ccccc3)c2=O)c2c(C)n(C)n(-c3ccccc3)c2=O)s1	0.704	11.8	5.9	-1.2	i	-9.6	x	14.6	1.4
NC(=O)c1cc[n+](CC(=O)NC(=O)Nc2ccccc2)cc1	0.7	6.9	8.4	3.4	i	67.0	x	-4.3	3.3
CCN(CC)c1ccc(/C=N/Nc2nc(C)cc(C)n2)c(O)c1	x	19.1	8.2	25.4	i	x	x	79.7*	22.7
CCCC(=O)Nc1ccc2c(c1)C(=O)N(C)C[C@H](OC)[C@@H](C)CN(Cc1nccs1)[C@H](C)CO2	x	0.0	3.7	-1.0	i	x	x	-1.7	x
O=C(NC(O)C(=O)c1ccccc1)c1ccccn1 (centres undefined)	0.701	1.8	7.1	-1.8	i	x	x	-0.3	0.7
CN(C)c1ccc(C2C3CCCc4ccccc4C3=NN2C)cc1 (centres undefined)	0.644	-27.4*	-8.9*	2.1*	i	37.0	9.3%	30.4*	6.4
C[C@H](CO)N1C[C@H](C)[C@H](CN(C)C)Oc2cc(C#Cc3cccc(F)c3)ccc2S1(=O)=O	x	-3.3	-1.2	7.6	i	x	x	9.7	x
CCC(C(=O)OC)n1cnc2c(nnn2-c2cccc(OC)c2)c1=O (centres undefined)	0.671	4.1	10.0	1.7	i	-22.5	0.5%	-1.3	1.1
O=C1C(c2ccccc2)=NCCN1C(c1ccc(F)cc1)c1nc2ccccc2[nH]1 (centres undefined)	x	-3.4	-8.6	1.5	i	x	x	3.0	1.4
COc1ccccc1NC(=O)C1=C(C)Nc2ncnn2C1c1ccc(C)o1 (centres undefined)	0.688	x	x	x	x	13.8	-4.4%	x	-1.9
COc1ccc2[nH]c3c(c2c1)CCN1C(=O)C(CC(=O)NCc2cccc(C(F)(F)F)c2)C[C@H](C(=O)N(C(C)C)C(C)C)[C@@]31C (some centres undefined)	0.724	0.2	3.9	0.4	i	x	3.8%	1.2	-3.0
CCn1c(NC(=O)c2nn(C)cc2Br)nc2ccccc21	0.717	-17.8*	-7.5*	6.5*	i	0.8	-1.9%	-0.2	-0.8
CC(=O)N(Cc1ccc(Br)cc1)c1cccc(C)c1C	0.669	-10.7	-7.8	1.9	i	-16.7	-12.2%	-4.0	4.4
CC(=O)c1ccc(OCc2c(-c3ccccc3)nnn2CC(=O)NS(=O)(=O)c2ccc(C)cc2)cc1	x	4.1	6.2	-1.6	i	x	x	-48.2	-5.2
CCOC(=O)c1nnc(-c2ccccc2)nc1Oc1ccccc1Cl	0.828	x	x	x	x	12.8	0.9%	x	2.5
Cc1cccc(NC(=S)N2CCn3cccc3C2c2cccnc2)c1 (centres undefined)	0.675	-9.1	-9.4	19.8	i	x	x	11.2	0.8
O=C(CN1CCN(c2ccc(O)cc2)CC1)Nc1cc(S(=O)(=O)N2CCCCC2)ccc1Cl	0.692	-3.9	-10.9	2.9	i	45.1	u	6.5	-0.4
CCS(=O)(=O)C1=NSC2=NC(=O)/C(=C\c3ccc(OC(=O)c4ccco4)cc3)C(=N)N21	0.699	1.0	6.2	-0.5	i	6.5	x	-4.3	5.0
O=C(Nc1ccccc1)OCc1cn(-c2ccc(Cl)cc2)nn1	0.698	x	x	x	x	-2.3	-2.1%	x	3.6
CC(CCc1ccccc1)NC(=O)COC(=O)c1ccccc1O (centres undefined)	0.665	15.8	6.9	0.7	i	-2.4	-1.3%	-52.2	-0.8
Cc1occc1C(=O)Nc1ccccc1C#N	0.691	1.4	11.8	-0.7	i	1.1	5.4%	-0.5	2.7
O=C(C[C@@H]1CC[C@H](NC(=O)Nc2ccc3c(c2)OCO3)[C@H](CO)O1)NCc1ccccc1	x	0.8	0.0	-2.4	i	x	x	-3.6	x
Cc1ccc(-n2ccnc2SCC(=O)c2c(N)n(C3CC3)c(=O)[nH]c2=O)cc1C	0.707	1.2	3.7	-1.0	i	0.3	-7.7%	0.0	-1.7
CCCCC[C@H](C)N1C[C@@H](COCc2ccccc2)Oc2cc(N3CCC[C@H]3C(N)=O)ccc2S1(=O)=O	x	1.5	-1.2	-1.6	i	x	x	0.0	-3.9
O=[N+]([O-])c1ccc(N2CCCC2)c([N+](=O)[O-])c1	x	-9.1	-10.0	2.1	i	x	0.8%	5.9	-1.6
CCc1nc2c(OCC(=O)N(C)C)cccn2c1N(C=O)Cc1ccc(OC)cc1	x	15.2	23.9	0.6	i	x	x	4.2	-0.3

Reformatted with two lines to a compound: part of the list above
Values in the order: Ecoli growth	rRNA inh HTS	rRNA inh HTS OD600	rRNA inh HTS RFP	FGF22 binding	ALR H2O2 inh	Vif TR-FRET	MLL AF4-AF9 inh	HNF4A DNA FP
> CCc1ccccc1NC(=O)c1cnc2n(c1=O)CCS2
    0.707	-9.2	-3.2	0.1	i	4.1	-0.9%	1.9	-1.0
> O=[N+]([O-])c1ccc(N2CCCC2)c([N+](=O)[O-])c1
    x	-9.1	-10.0	2.1	i	x	0.8%	5.9	-1.6

Additional structures follow:
smiles	Ecoli growth	rRNA inh HTS	rRNA inh HTS OD600	rRNA inh HTS RFP	FGF22 binding	ALR H2O2 inh	Vif TR-FRET	MLL AF4-AF9 inh	HNF4A DNA FP
C[C@@H]1CN([C@@H](C)CO)C(=O)c2cccc(N(C)C)c2O[C@H]1CN(C)S(=O)(=O)c1ccccc1	x	-7.1	-6.9	0.4	i	x	x	-3.4	x
Cn1c(=O)c(C(=O)NCc2ccccc2)c(O)c2ccccc21	0.631	5.9	8.7	0.0	i	-4.6	-11.0%	-2.6	-1.1
COc1ccc(N2CCN(C(CNS(=O)(=O)c3ccccc3)c3ccccc3)CC2)cc1 (centres undefined)	0.71	-4.0	-14.6	-0.7	i	24.8	x	13.5	0.6
CNC[C@@H]1Oc2ccc(N)cc2C(=O)N([C@H](C)CO)C[C@H]1C	x	-0.1	10.7	0.1	i	x	x	2.2	x
Cc1cccc(NC(=O)CSc2nc3[nH]c(=O)cc(O)c3s2)c1	0.68	6.9	14.9	-0.9	i	99.3*	x	0.5	-5.5
CC1(c2nnc(Cc3ccccc3)o2)CC(c2ccc(C#N)cc2)=NO1 (centres undefined)	x	0.1	6.3	-7.7	i	-7.1	x	3.9	2.1
C[C@H]1CCCCO[C@H](CN(C)Cc2ccc(C(=O)O)cc2)[C@@H](C)CN([C@@H](C)CO)C(=O)c2cc(NC(=O)c3ccccc3)ccc2O1	x	3.6	3.4	-0.3	i	x	x	-2.1	x
CCCN(C)C[C@H]1Oc2ncc(-c3cccc(C#N)c3)cc2C(=O)N([C@@H](C)CO)C[C@H]1C	x	3.5	5.1	-2.6	i	x	x	-0.5	x
CCOC(=O)CNC(=S)N(Cc1ccccc1)Cc1cccs1	0.706	-26.4*	0.8*	-3.6*	i	-1.0	-9.1%	-4.0	-1.0
Cc1cc(C)n2c(-c3ccccc3Cl)nnc2n1	0.68	x	x	x	x	4.9	-2.1%	x	4.2
COC(=O)c1cn(-c2ccccc2)c(=O)c2ccccc12	0.667	0.6	-11.5	-1.0	i	0.8	-1.2%	1.3	0.8
Cc1ccccc1S(=O)(=O)N1C[C@H](O)COC[C@@H]2O[C@H](CC(=O)NCCc3ccccc3)CC[C@H]21	x	3.9	18.2	-2.3	i	x	x	5.0	x
CN(C)S(=O)(=O)c1cccc2c1C(=O)c1ccccc1C2=O	0.673	10.1	6.8	-0.9	i	-14.1	-9.7%	-1.5	0.9
c1c(CC2CCCC2)nnn1C[C@H]1CC[C@@H]([C@@H]2CC[C@H](Cn3cc(CC4CCCC4)nn3)O2)O1	x	5.7	5.0	4.3	i	-10.3	x	21.4	-5.6
O=C(OCC(=O)c1ccc(Cl)cc1Cl)c1ccccn1	0.666	4.9	8.0	-1.5	i	20.7	x	-0.7	-3.0
C/C(=N/NC(=O)CNc1ccc(C)cc1)c1ccc(Br)s1	x	4.7	19.5	15.3	i	-5.6	u	8.3	1.2
COc1ccc(C2/C=C\CNCC(=O)N2Cc2ccc(F)cc2)cc1 (centres undefined)	x	10.4	0.2	-0.9	i	x	x	x	-1.6
COCCNC(=O)C[C@@H]1CC[C@@H]2[C@H](COC[C@H](O)CN2Cc2cccc(-c3ccncc3)c2)O1	x	-2.6	11.5	0.6	i	x	x	-10.1	x
Cc1cc2ccccc2n1CCNC(=O)COc1ccccc1	0.767	-2.7	5.9	36.5	i	-2.0	2.1%	-5.0	0.5
N#C/C(=C(/O)COC(=O)c1ccc(O)cc1)c1nc2ccccc2[nH]1	0.722	-4.8	-6.3	0.1	i	x	11.1%	0.4	-0.1
COc1cccc(S(=O)(=O)N2CCCCN3[C@H](CO)[C@@H](c4ccc(-c5ccccc5)cc4)[C@H]3C2)c1	x	-53.0	-56.2	-13.3	i	x	x	1.1	x
Fc1cc(F)cc(Nc2nc(Cl)nc(NC3CCCC3)n2)c1	0.693	-9.1	-4.8	18.0	i	67.7	x	3.2	6.7
O=C(N/N=C/c1ccc(-c2ccccc2[N+](=O)[O-])o1)c1cccnc1	x	18.8	6.8	21.8	x	50.2	14.4%	x	-1.1
COc1ccccc1Oc1ccc2c(c1)C(=O)N(c1cccc3ncccc13)C2=O	0.693	6.5	7.0	-0.9	i	x	x	-7.7	-1.7
Cc1ccc(S(=O)(=O)N2CCCC2C(=O)NCc2ccco2)cc1 (centres undefined)	0.649	x	x	x	x	-1.2	10.5%	x	-2.8
COc1ccc(NC(=O)C[C@H]2C(=O)N(C3CCCCC3)C[C@@H]2CSC)cc1	x	-13.1	-20.6	-0.5	i	x	-3.7%	2.2	-2.6
Cc1ccc(S(=O)(=O)N2CCCCC2)cc1C(=O)NCC1CCCO1 (centres undefined)	0.659	6.6	7.2	1.5	i	-8.5	x	-8.0	5.4
COc1ccc(/C=C/C(=O)C2CC2)cc1COc1cccc(C)c1C	0.723	x	x	x	i	x	4.5%	-0.4	1.0
CCCNC(=O)N(C)C[C@@H]1Oc2ncc(C#CC3CC3)cc2C(=O)N([C@@H](C)CO)C[C@H]1C	x	3.1	6.6	1.1	i	x	x	0.5	x
CNc1ccc(Br)cc(C(=O)/C=C/c2ccc(OC)cc2OC)c1=O	0.726	x	x	x	x	2.2	2.79µM*	x	-6.9
Cc1nn(CCCC(=O)Nc2ccccn2)c(C)c1[N+](=O)[O-]	0.678	3.6	1.3	-4.3	i	-14.2	-2.5%	-0.9	-1.2
CC(C)(C)c1nc2scc(-c3ccc(Cl)cc3)c2c(=O)o1	0.734	x	x	x	x	-3.4	u	x	-0.3
CCOC(=O)N1CCC(O)(c2cc(C)c(C)cc2C)CC1	0.655	x	x	x	x	1.8	-4.9%	x	2.0

Screens (PubChem)

Not all compounds are listed; the hit share may differ from the screen's.
